HCMV NEC inh = inhibitors of HCMV UL50-UL53 nuclear egress complex interaction | actives 0.15% (n = 190,000) | inhibition, % (concentration not given with the values) | HTRF UL50-UL53 interaction, normalized percent inhibition;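 active means both replicates at 50% or more, plus weaker picks with an unusually low signal ratio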;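 further: stock transfer was 100 nL into about 20 µL; 0% = negative control wells and 100% = wells with untagged competitor protein; inactives centre near -12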
GIV Gai3 FP = GIV-Galpha-i interaction inhibition; P08753; Galpha-i3/FITC-GIV peptide fluorescence polarization, 90 min; active compounds read low; scaled: aluminum fluoride 0%, vehicle 100%; actives 0.42% (n = 210,000); AID 1224905; percent of control (FP), % (concentration not given with the values);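 active means replicate mean at 85% of control or lower, very high polarization wells dropped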;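 further: wells of about 15 µL received 100 nL stock; the first replicate is given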
Target sequence (P08753 whole entry, looked up): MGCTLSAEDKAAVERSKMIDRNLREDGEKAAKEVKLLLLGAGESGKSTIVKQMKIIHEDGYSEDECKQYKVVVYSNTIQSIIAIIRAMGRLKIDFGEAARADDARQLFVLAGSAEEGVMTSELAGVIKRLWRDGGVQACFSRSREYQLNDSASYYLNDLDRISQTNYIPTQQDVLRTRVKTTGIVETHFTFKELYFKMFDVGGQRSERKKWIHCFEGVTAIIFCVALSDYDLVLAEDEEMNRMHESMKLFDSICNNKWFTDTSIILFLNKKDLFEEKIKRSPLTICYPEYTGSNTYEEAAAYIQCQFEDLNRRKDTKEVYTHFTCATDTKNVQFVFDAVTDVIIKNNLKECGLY
Sa growth 42C = S. aureus growth inhibition. actives 0.53% (n = 170,000). S. aureus RN4220 growth, OD600, 20 h, 42 °C; active compounds read low. relative growth, % (concentration not given with the values);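 active means growth at 42 °C up to 50% and 20 or more points under that at 30 °C, or under 10% at both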;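 further: 300 nL library stock went into each well; scaled to the means of positive and negative controls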
Sa growth 42C second temp = second read-out of Sa growth 42C, no call of its own (marks repeat the call); relative growth, %; measured here: growth at 30 °C;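 optical density after 20 h as mean of two plates; 100% = untreated growth and lower means inhibition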
* hit, by the source's call; . = not tested or not shown; & = joins results of further samples.

SMILES | HCMV NEC inh | GIV Gai3 FP | Sa growth 42C | Sa growth 42C second temp
CC(C)CNC(=O)c1cccc(S(=O)(=O)N2CCCC2)c1 | -4 | . | 92 | 90
Cc1ccc(C)c(OCc2nc(C)c(C(=O)Nc3nnc(C4CC4)s3)s2)c1 | -6 | 98 | . | .
Cn1c(=O)oc2cc(S(=O)(=O)N3CCCC(C(=O)N4CCN(c5ccccc5F)CC4)C3)ccc21 (stereo not drawn) | -42 | 102 | 101 | 89
O=C(O)c1cc(NS(=O)(=O)c2cc(F)ccc2F)cnc1N1CCOCC1 | -10 | 57* | . | .
CC1(C)Cc2c(ccc3ccccc23)C(Sc2ccc(N)cc2)=N1 | -21 | . | 83 | 92
COc1ccc(CCNc2nc3ccc(C)cc3n3cnnc23)cc1OC | -36 | 105 | 105 | 95
O=C(Nc1cccs1)Nc1ccccc1N1CCCCC1 | 16 | 108 | 106 | 90
CCCCn1c(N)cc(=O)[nH]c1=O | -17 | . | 80 | 90
O=c1cc(CSCc2ccccc2)nc2sccn12 | 9 | 101 | 94 | 96
Fc1cc(Br)ccc1N=Cc1ccccn1 | -23 | . | 94 | 93
CCOC(=O)c1cnn(C(=O)c2snnc2C)c1N | -7 | 107 | 91 | 95
COc1ccc(C2Nc3ccccc3-c3nnc(SC)nc3O2)cc1C (stereo not drawn) | -37 | 36* | 96 | 88
CCCCSc1nc2ccccc2[nH]1 | -15 | 100 | 91 | 72
CCCCn1c(=O)nc2n(-c3ccc(F)cc3)c3ccccc3cc-2c1=O | -101 | 104 | 90 | 84
COc1cc(OC)cc(C(=O)Nc2nc3ccccc3c3nc4ccccc4n23)c1 | -13 | 96 | . | .
O=C(NCCN1CCCCC1)c1cc2ccccc2[nH]1 | -11 | 96 | . | .
CCOC(=O)c1ccc(N2CCN(c3ccccc3F)CC2)c(NC(=O)Nc2ccc(Cl)c(Cl)c2)c1 | . | 105 | 100 | 72
Cc1ccc(CC2CC(=O)N(c3ccccn3)C2=O)cc1 (stereo not drawn) | 8 | 111 | 100 | 100
N#Cc1c(C(F)(F)F)cc(-c2ccccc2)nc1SCC(=O)N1CCOCC1 | -24 | 108 | . | .
Fc1ccc(-c2nnc3sc(CN4CCc5ccccc5C4)cn23)cc1 | -17 | 101 | . | .

Whole records from above. Values in the order: HCMV NEC inh | GIV Gai3 FP | Sa growth 42C | Sa growth 42C second temp
Fc1ccc(-c2nnc3sc(CN4CCc5ccccc5C4)cn23)cc1 is listed as -17 | 101 | . | .
O=C(O)c1cc(NS(=O)(=O)c2cc(F)ccc2F)cnc1N1CCOCC1 is listed as -10 | 57* | . | .
COc1ccc(C2Nc3ccccc3-c3nnc(SC)nc3O2)cc1C (stereo not drawn) is listed as -37 | 36* | 96 | 88

Next part
SMILES | HCMV NEC inh | GIV Gai3 FP | Sa growth 42C | Sa growth 42C second temp
CCC(=O)Nc1sccc1C(=O)OC | 8 | 103 | 102 | 99
Cc1cccc(-c2nn3c(=O)cc(CN4CCN(S(=O)(=O)c5ccc(Cl)cc5)CC4)nc3s2)c1 | . | 99 | 85 | 90
CN1CCC2(CCN3CCc4c(oc5ccccc45)C3C2)N(C)C1=O (stereo not drawn) | -6 | 107 | . | .
Cc1cccc(-c2noc(NC(=O)O/N=C/c3c(Cl)cccc3Cl)n2)c1 | 5 | 100 | 88 | 30
Cn1c(SCC(=O)NCc2ccccc2)nc2c(-c3ccccc3)csc2c1=O | 11 | 106 | . | .
O=C1CNC(=S)N1CCOc1ccccc1Cl | 9 | 108 | 83 | 96
CCOc1ccc(-c2c(C#N)c(N)nc(SCC(=O)c3ccc(Cl)cc3)c2C#N)cc1 | . | 102 | 89 | 91
CCOC(=O)c1cc(S(=O)(=O)N2CCN(c3ccc(OC)cc3)CC2)[nH]n1 | . | 103 | 122 | 106
Cc1cc2c(cc1S(=O)(=O)N(CCN(C)C)Cc1ccccc1)OCC(=O)N2 | . | 101 | 84 | 83
CCOC(=O)C1CCN(C2c3ccccc3-c3ccccc32)CC1 | 11 | . | 91 | 104
CC12CCC(c3c1noc3C(F)(F)F)C2(C)C (stereo not drawn) | -34 | 100 | 88 | 20
CC(C)(C)c1nnc(Nc2ccc3c(c2)OCO3)n(N)c1=O | 2 | . | 85 | 86
CSc1nc(-c2ccc(F)cc2)nc2c1Cc1c(CO)cnc(C)c1O2 | . | 100 | 123 | 91
COc1nc(OC)nc(N2CCCc3cccc(C)c32)n1 | -33 | 105 | 93 | 82
Cc1ccccc1CN1C(=O)c2ccccc2Sc2ccc(C(=O)NCc3ccccc3)cc21 | . | 97 | 119 | 102
O=C(NC1CCCC1)c1ccc2c(c1)C(=O)N(CC1CCCO1)C2=O (stereo not drawn) | -81 | 105 | 95 | 101
COc1cccc(CNCc2c(C(=O)O)n(Cc3ccc(C)cc3)c3cc(C)ccc23)c1OC | . | 106 | 83 | 101
CC1=C(C#N)C(=O)NC(=O)/C1=C/c1ccc(N(C)C)cc1 | . | 98 | 74 | 60
CC1CCN(S(=O)(=O)c2ccc3c(ccn3CCC(=O)NCCC3=CCCCC3)c2)CC1 | -7 | 95 | . | .
NC(=O)Cn1cc(/C=C2/C(=O)NC(=O)N(C3CCCCC3)C2=O)c2ccccc21 | . | 146 | 90 | 90

5 compounds out of the list above, ordered by their value in Sa growth 42C second temp, falling:
canonical_smiles	Sa growth 42C second temp
Cc1ccccc1CN1C(=O)c2ccccc2Sc2ccc(C(=O)NCc3ccccc3)cc21	102
O=C(NC1CCCC1)c1ccc2c(c1)C(=O)N(CC1CCCO1)C2=O (stereo not drawn)	101
O=C1CNC(=S)N1CCOc1ccccc1Cl	96
CCOc1ccc(-c2c(C#N)c(N)nc(SCC(=O)c3ccc(Cl)cc3)c2C#N)cc1	91
Cc1cccc(-c2noc(NC(=O)O/N=C/c3c(Cl)cccc3Cl)n2)c1	30

Following part:
SMILES | HCMV NEC inh | GIV Gai3 FP | Sa growth 42C | Sa growth 42C second temp
CCC(=O)N1N=C(c2ccc(F)cc2)CC1c1ccc(OC)cc1 (stereo not drawn) | 0 | 105 | 81 | 104
CC1C/C(=N\NC(=O)C2COc3ccccc3O2)CC(C)(C)C1 (stereo not drawn) | -20 | . | 97 | 92
CCOC(=O)NS(=O)(=O)c1ccc(-c2cc(C(F)(F)F)n(C)n2)s1 | 23 | 101 | 96 | 91
COc1cccc(NC(=O)n2ncc3cc(Cl)ccc32)c1 | -8 | 104 | . | .
CC1CCCN(S(=O)(=O)c2cc(C(=O)N3CCc4ccccc4C3)n(C)c2)C1 (stereo not drawn) | -24 | 104 | . | .
C/C(=C\C(=O)Nc1ccc(Cl)cc1)NCc1ccco1 | -19 | . | 79 | 94
CCCCn1c(CN2CCCC2)nc2cc(NC(=O)C3CCCCC3)ccc21 | -13 | 94 | . | .
COc1cccc(/C=C/c2nc(C#N)c(N3CCCCC3)o2)c1 | -30 | 106 | 112 | 89
CC(C)CN(CCNC(=O)c1cc(=O)[nH]c2ccc(S(=O)(=O)N3CCCCCC3)cc12)CC(C)C | . | 98 | 108 | 82
Cc1ccc(C)c(CN2C(=O)C(C)CNc3ccccc32)c1 (stereo not drawn) | 2 | 105 | . | .
COc1ccc(-n2ncc(C(=O)Nc3ccc4c(c3)OCCO4)c2C2CCN(C(=O)OC(C)(C)C)CC2)cc1 | . | 113 | 99 | 101
Cc1cccc(CN2CC=C(C(=O)Nc3ccc(C)c(Cl)c3)CC2)c1 | -9 | 103 | . | .
Cc1nnc(-c2ccc(S(=O)(=O)NCc3cccs3)s2)o1 | -63 | 108 | . | .
COc1ccc(-c2csc(C3COc4ccccc4O3)n2)c(OC)c1 (stereo not drawn) | -4 | . | 106 | 101
COC(=O)CSC1=C(C#N)C(=O)NC2(CCCCC2)S1 | -4 | 110 | 82 | 66
O=C(COc1ncnc2sc3c(c12)CCC3)NCCN1C(=O)CSC1=O | -16 | . | 87 | 94
CC1Cc2ccccc2N1CC(=O)Nc1ccc(SC(F)F)cc1 (stereo not drawn) | -17 | . | 96 | 77
O=C(CSc1cn(CC(=O)N2CCCCC2)c2ccccc12)Nc1ccccc1 | . | 100 | 99 | 89
CN(N)c1nc2ccccc2nc1C(F)(F)F | -26 | 95 | . | .
Cc1nn(-c2ccccc2)c2[nH]cc(C(=O)Nc3ccccc3)c(=O)c12 | -31 | 109 | 8.8* | 2.5*
COC(=O)c1cc2c(ccn2-c2ccc(F)cc2)n1CC(=O)N1CCCCC1 | -7 | 95 | 97 | 80
Cc1ccc(N2C(=O)C(F)(F)C2c2ccccc2)cc1 (stereo not drawn) | -4 | . | 76 | 90
COCCOC(=O)c1c(C)oc2ccc(OCc3cc(C(=O)OC)oc3C)cc12 | -34 | 108 | 80 | 68
O=C(Nc1ccc(Cl)cc1)Nc1csc(N2CCCCC2)n1 | -12 | . | 96 | 94
CCCC1C(=O)CC(c2ccco2)NC1c1ccco1 (stereo not drawn) | -2 | 99 | 113 | 72
COc1ccc(CNC(=O)CN2C(=O)c3cccnc3Oc3ccc(C)cc32)cc1 | . | 108 | 76 | 83
Cn1nnnc1SCC(=O)NN1C(=O)NC(C)(c2ccccc2)C1=O (stereo not drawn) | -1 | . | 101 | 107
Cc1ccc(NC(=O)C2CCN(c3nnc(C)c4c(C)n(-c5ccccc5)nc34)CC2)c(Cl)c1 | . | 105 | 102 | 102
NS(=O)(=O)c1ccc(Cl)nc1 | 5 | . | 113 | 93
Cc1cc(NC(=O)c2cccc(Cl)c2)ccc1-c1cc2ccccc2oc1=O | -51 | 107 | 103 | 91
Cn1c2nc3ccccc3nc2c2c(=O)n(C3CCCC3)cnc21 | -40 | 103 | 69 | 74
CCOC(=O)c1c(-c2ccccc2)oc2ccc(O)cc12 | -30 | . | 90 | 76
CCc1cc2c(=O)c(-c3nc4ccccc4n3C)c(C)oc2c(CN2CCCCC2)c1O | -18 | 102 | 93 | 82
CC(=O)N[C@@H](CS)C(=O)O | -16&7&6 | 109 | 86 | 84
CCOc1ccccc1-n1nnc(-c2nc(-c3ccccc3)no2)c1N | . | 101 | 111 | 91
Cc1occc1-c1n[nH]c(=S)o1 | 11 | . | 85 | 89
COc1ccc(N2CCN(C(=O)c3ccc4c(c3)CCN4S(C)(=O)=O)CC2)cc1 | 6 | 104 | 104 | 95
COC(=O)CSc1nc(N)c2c3c(sc2n1)CC(C(C)(C)C)CC3 (stereo not drawn) | -22 | 105 | . | .
CC1=C(C(=O)Nc2ccccc2)C(c2ccccn2)n2ncnc2N1 (stereo not drawn) | 12 | 104 | . | .
O=C(NC1(C(=O)O)CC1)OCC1c2ccccc2-c2ccccc21 | 2 | 101 | 132 | 107
COc1ccc(C(=O)Oc2cc(-c3ccc(OC)c(OC)c3)cc(=O)c3c(C)oc(C)c23)cc1 | -28&-19 | 115&121 | 111 | 91
O=C1NC(c2cccc([N+](=O)[O-])c2)=CCN1c1ccccc1O | -101&-31&-31&-184 | 107 | . | .
CCOC(=O)C1=C(C)NC(SC)=NC1c1ccc(OC)cc1 (stereo not drawn) | -6 | 105 | 98 | 90
Cc1cccc(N2CC(C(=O)Nc3ccc(N4CCOCC4)cc3)CC2=O)c1C (stereo not drawn) | -9 | . | 88 | 92
CC(C)c1cc2cc(/C=C/C(=O)O)c(O)cc2o1 | -14 | 105 | -0.3* | -0.2*
CCc1nonc1NC(=O)c1oc2cc(C)c(Cl)cc2c1C | -33 | 97 | 99 | 88
Cc1cccc(NS(=O)(=O)c2ccc(Cl)c(C(=O)Nc3ccccc3C)c2)c1 | -34 | 105 | 103 | 98
Cc1cc(=O)oc2c(CNC(CC(C)C)C(=O)O)c(O)ccc12 (stereo not drawn) | -4 | . | 81 | 89
CCCCN(C)C(=O)CN1C(=O)CC(C)(C)Sc2ccccc21 | 5 | 102 | 101 | 88
CCCOc1ccc(/C=C/C(=O)Nc2nccs2)cc1OC | . | 99 | 98 | 92
COc1ccc(CCNC(=O)C23CC4CC(CC(C4)C2)C3)cc1OC | -28 | . | 105 | 86
O=C1OCCC1Sc1nc2ccccc2c(=O)n1Cc1ccco1 (stereo not drawn) | -11 | . | 92 | 96
Cc1nn(C)c2c(=O)c(=O)c2n(C)[nH]1 | -58 | 90 | 88 | 81
Cc1ccc(C(=O)N(CC(C)C)CC(C)C)cc1C | -11 | 100 | 109 | 86
NC(=O)C1CCN(C(=O)C2CCN(S(=O)(=O)Cc3ccc(Cl)cc3)CC2)CC1 | -21 | 109 | . | .
Cc1cccc(N(C)S(=O)(=O)c2nnc(NC(=O)c3cccs3)s2)c1 | -6 | 108 | 128 | 43
COC(=O)Nc1ncc(CN2CCCCC2)s1 | 0 | 105 | 108 | 105
CC(C)n1c2c(=O)[nH]c(=O)n(C)c2n2c(-c3ccc(Br)cc3)nnc12 | -9 | 103 | . | .
Cc1cc2nc(SCCN3CCCC3)[nH]c2cc1C | . | 103 | 88 | 86
COC(=O)c1cc(OCc2c(C)noc2C)cc(C(=O)OC)c1 | -6 | 98 | 102 | 94
O=C(O)C1CCC(=O)N(C2CCCCC2)C1c1ccccc1Cl (stereo not drawn) | -48 | 101 | 98 | 86
CCOc1ccc(NC(=O)Nc2ccc(Nc3cc(N(C)C)nc(C)n3)cc2)cc1 | -37 | 95 | . | .
CCCn1c2ccccc2c2cnn(CC(=O)NCCc3ccc(S(N)(=O)=O)cc3)c(=O)c21 | . | 111 | 113 | 107

In the list so far, these have bromine.
SMILES | HCMV NEC inh | GIV Gai3 FP | Sa growth 42C | Sa growth 42C second temp
Fc1cc(Br)ccc1N=Cc1ccccn1 | -23 | . | 94 | 93
CC(C)n1c2c(=O)[nH]c(=O)n(C)c2n2c(-c3ccc(Br)cc3)nnc12 | -9 | 103 | . | .

Outcome played no part in choosing rows; about 0.8% have a hit in one of these screens.
